Compound activity as filed in PubChem BioAssay.
Mtb H37Rv: Mycobacterium tuberculosis H37Rv growth inhibition, cell based, confirmatory dose response (AID 1949) | M. tuberculosis H37Rv growth inhibition | most inactive calls were filed without a number and no value below 0 was filed | 100,000 compounds, 1.6% hits | inhibition, % at 10 µg/mL; hits with a dose series show IC50 in µg/mL;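 active means confirmed in a dose series; inconclusive means about 50% or more but not retested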;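 further: bacteria grown 7 days with compound before Alamar blue readout; 0% = untreated bacteria and 100% = reference antibiotic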
The depositor's hits bear a star; i = inactive; ? = inconclusive.

SMILES	Mtb H37Rv
Cc1cccc(N2C(=O)N(c3ccc(Cl)c(Cl)c3)C3CS(=O)(=O)CC32)c1 (stereo not given)	i
O=C(NNC(=S)Nc1ccc(Cl)c(Cl)c1)c1ccccn1	i
Cc1ccc(NC(=O)CC(=O)NCCN2CCOCC2)cc1	i
CCOC(=O)c1ccc(NC(=O)c2c(Cl)ccc(Cl)c2OC)cc1	5%
CC(C)(C)NC(=O)c1ccccc1NC(=O)CN1C(=O)c2ccccc2C1=O	i
CCOc1ccc(NC(=S)NC2CCC(C(C)(C)CC)CC2)cc1 (stereo not given)	6%
CC(=O)Nc1ccc(C(=O)N2CCN(c3ccc([N+](=O)[O-])cc3)CC2)cc1	i
CCC(C)c1ccccc1OCCNCc1ccccc1 (stereo not given)	12%
COC(=O)c1ccc(NC(=O)CN2C(=O)C3C4CC(c5ccccc5)C(C4)C3C2=O)cc1 (stereo not given)	?
O=C(O)CCCCCNC(=O)/C(=C\c1ccc2c(c1)OCO2)NC(=O)c1ccc(Br)o1	i
CC(=O)NC(=S)Nc1ccc(NC(=S)NC(=O)c2cccc(OCc3ccccc3)c2)cc1	2%
CCCC(=O)N1CCN(c2nnc(-c3ccccc3)c3ccccc23)CC1	i
Clc1ccc(Cc2noc(COc3ccc(Cl)cc3Cl)n2)cc1	6%
CCOc1ccccc1NC(=O)NC(C)c1cc(OC)ccc1OC (stereo not given)	i
O=S(=O)(Cc1ccccc1)N1CCc2ccccc21	1%
CCOC(=O)c1sc2ncn(CC(=O)Nc3ccccc3CC)c(=O)c2c1C	i
Fc1cccc(NC(=S)Nc2ccccc2-c2ccccc2)c1	i
O=C(Nc1nc2ccccc2[nH]1)c1ccc(Br)o1	?
O=C(NC12CC3CC(CC(C3)C1)C2)N1CCN(c2cccc(Cl)c2)CC1	8.1µg/mL*
CCc1ccc2c(c1)c1nc3ccccc3nc1n2CC(=O)OC	5%
CCOc1ccccc1NC(=O)CN(Cc1ccc(Cl)c(Cl)c1)S(=O)(=O)c1ccccc1	9%
O=C1CC(c2cccc(F)c2)Sc2nc3ccccc3n21 (stereo not given)	i
CC(=O)Nc1cccc(NC(=O)c2cccc(NC(=O)c3ccccc3)c2)c1	3%
CCOc1ccc(NC(=O)CCCOc2ccc(OC)cc2)cc1	i
COc1ccc(S(=O)(=O)NCCCN(C)C)cc1N(C)S(=O)(=O)c1ccccc1	i
Cc1cc(N2CCOCC2)cc(C)[n+]1[O-]	i
CCOC(=O)c1cnn2c(NC(=O)c3c(Br)cnn3C)c(C#N)nnc12	i
CCOc1ccc(NC(=O)c2nsc(Cl)c2Cl)cc1	i
N#Cc1ccccc1CSc1nc(N)cc(=O)[nH]1	i
Cc1ccc(CNC(=O)CSc2nc3ccc(NC(=O)c4ccc(F)cc4)cc3s2)cc1	i
O=[N+]([O-])c1cccc(C(=S)N2CCC(Cc3ccccc3)CC2)c1	i
CN1CCN(c2ccc(NC(=O)COc3ccc(C(C)(C)C)cc3)cc2)CC1	21%
CCOc1ccc(CN2CCN(C(=O)c3ccc(F)cc3)CC2)cc1	2%
Cc1ccc(O)c(NC(=O)c2nn3cccnc3c2Cl)c1	i
CCn1cc(CNC(=O)c2sc3cc(Cl)ccc3c2Cl)cn1	i
COc1ccc(NC(=O)CCCSc2nc(N)c3c(C)c(C)sc3n2)cc1	i
O=C(COc1cccc(NC(=O)c2ccccc2Cl)c1)c1ccc(F)cc1	i
Cc1ccc(S(=O)(=O)N2CCCCCC2)c(C)c1C	1%
CC1(C)NC(=O)N(CCCCOc2ccccc2OCc2ccccc2)C1=O	i
Cc1ccc(NC(=O)C23CCC(C)(C(=O)C2)C3(C)C)cc1Cl (stereo not given)	i
CC1CCCCN1S(=O)(=O)c1c(F)cccc1F (stereo not given)	i
Cn1c(O)c(N=NC(=O)c2ccccc2O)c2ccccc21	?
COc1cccc(N2CCN(C(=S)Nc3cccc(Cl)c3C)CC2)c1	i
CC(=O)c1cccc(NC(=O)NNC(=O)c2cccc(OCC(C)C)c2)c1	i
CCOC(=O)Nc1ccc(F)c(Cl)c1	i
CCOC(=O)c1ccc(NC(=O)Nc2nn(Cc3ccc(Cl)c(Cl)c3)cc2Cl)cc1	i
COc1cc(OC)c(C2C3=C(CC(C)(C)CC3=O)Nc3[nH]n(-c4ccccc4)c(=O)c32)cc1OC (stereo not given)	4%
N#CCCN(CCC#N)C(=O)Cc1ccc(Br)cc1	4%
O=C(CSc1nnc(Cc2cccc3ccccc23)n1-c1ccccc1)NC1CC1	i
FC(F)(F)c1cccc(NC(=S)Nc2ccc(Cl)cc2Cl)c1	12µg/mL*
More records
SMILES	Mtb H37Rv
O=S1(=O)c2cccc3cccc(c23)N1Cc1ccccc1F	i
CCOc1ccc(N(CC(=O)N2CCCC2)S(=O)(=O)c2ccc(OC)c(OC)c2)cc1	i
Cc1nc2cc(NC(=O)Nc3cccnc3)ccc2n1C	i
CC(Oc1ccc(Cl)cc1Cl)C(=O)N(C)Cc1ccccc1 (stereo not given)	22%
COc1ccc(-n2c(-c3cccc(C)c3)n[nH]c2=S)cc1	i
CC(C)c1nnc(NC(=O)C(C)(C)Oc2ccc(Cl)cc2)s1	i
COc1ccc(N2Cc3ccccc3C2)c(OC)c1	i
O=C1c2ccccc2C(=O)N1c1n[nH]c(-c2ccc(Cl)cc2)n1	i
CCOc1cccc(C(=O)Nc2ccc(NC(=O)c3ccco3)c(Cl)c2)c1	i
COc1ccc(CNC(=O)c2ccc(I)cc2)cc1	i

The closing 2 compounds of the section above are carried over, then new ones follow.
SMILES	Mtb H37Rv
CCOc1cccc(C(=O)Nc2ccc(NC(=O)c3ccco3)c(Cl)c2)c1	i
COc1ccc(CNC(=O)c2ccc(I)cc2)cc1	i
CCc1cccc(C)c1NC(=O)COc1cc(C)c(Cl)c(C)c1	i
CS(=O)(=O)N(CC(=O)N1CCCCCC1)c1cccc(C(F)(F)F)c1	i
CS(=O)(=O)N(CC(=O)Nc1cccnc1)c1cccc(Br)c1	i
COC(=O)c1c(NC(=O)c2cc(Cl)ccc2Cl)sc(C)c1C	i
CC(=O)Oc1ccc2c(=O)c(Oc3ccc(-c4ccccc4)cc3)c(C(F)(F)F)oc2c1	i
NC(=O)C1CCN(C(=O)c2ccccc2CCc2ccccc2)CC1	i
CCC1S/C(=N\C(=O)NC2CCCCC2)NC1=O (stereo not given)	i
CN(c1ccccc1)S(=O)(=O)CC12CCC(CC1=O)C2(C)C (stereo not given)	i
COC(=O)Cc1c(C)c2ccc(OCC(=O)Nc3cccc(Br)c3)c(C)c2oc1=O	21%
O=C(COc1ccccc1)Nc1ccc(N2CCOCC2)c2nonc12	4%
O=C(NC(=S)Nc1ccc2nn(-c3ccc(F)cc3)nc2c1)c1ccc(Cl)cc1Cl	i
O=C(Cc1ccc(Br)cc1)Nc1ccc2c(c1)OCCO2	i
CCCn1c(C(CC)CC)nc2ccccc21	i
O=S(=O)(c1cccc2nonc12)N1CCN(c2ccccc2Cl)CC1	i
COc1ccc(NC(=O)Cc2c(OC)ccc3cc(Br)ccc23)cc1	6%
COc1ccc([N+](=O)[O-])cc1NC(=O)C1(c2ccc(OC)c(OC)c2)CCCC1	i
N#Cc1c(SCC(=O)OCc2ccccc2)nsc1SCC(=O)OCc1ccccc1	8.7µg/mL*
COc1ccc(S(=O)(=O)N2CCC(C)CC2)cc1N(C)S(=O)(=O)c1ccc(C)cc1	0%
CCN(CC)S(=O)(=O)c1ccc(NC(=O)c2ccc(C)c(C)c2)cc1	4%
CCOc1ccc(S(=O)(=O)N(CC(=O)Nc2ccc(C)c(Cl)c2)c2ccccc2)cc1	i
O=C(c1ccc(-c2ccccc2)cc1)N1CCCN(C(=O)c2ccc(-c3ccccc3)cc2)CC1	i
COC(=O)c1ccc(C(=O)OC)c(NC(=S)N2CCCC2)c1	i
CCOC(=O)N1CCC(n2c(SCc3ccccc3F)nc3ccccc3c2=O)CC1	i
CCOc1ccc(CC2S/C(=N\N=C\c3ccc(Cl)cc3)NC2=O)cc1 (stereo not given)	i
COc1ccc(S(=O)(=O)N2CCC(C(=O)Nc3cc(C)cc(C)c3)CC2)cc1OC	i
CC(C)c1cccc(C(C)C)c1NC(=O)c1ccc(OCC(=O)NCc2ccccc2)cc1	i
CC(C)c1ccc(OCC(=O)O/N=C(\N)c2cccnc2)c(Br)c1	i
CCC(C(=O)Nc1ccon1)c1ccccc1 (stereo not given)	i
CCN(CC1COc2ccccc2O1)C(=S)Nc1ccccc1 (stereo not given)	i
COc1cccc(N2CCN(C(=O)Nc3cccc4ccccc34)CC2)c1	i

Sorted by formula weight (highest first): part of the list above.
SMILES	Mtb H37Rv
COc1ccc(S(=O)(=O)N2CCC(C(=O)Nc3cc(C)cc(C)c3)CC2)cc1OC	i
CC(C)c1ccc(OCC(=O)O/N=C(\N)c2cccnc2)c(Br)c1	i
CCOc1ccc(CC2S/C(=N\N=C\c3ccc(Cl)cc3)NC2=O)cc1 (stereo not given)	i
COc1cccc(N2CCN(C(=O)Nc3cccc4ccccc34)CC2)c1	i

Following part:
SMILES	Mtb H37Rv
Cc1ccc([N+](=O)[O-])cc1S(=O)(=O)Nc1ccccc1C(=O)Nc1cccc(Cl)c1	i
CCCC1CCc2c(sc(NC(=O)c3ccco3)c2C#N)C1 (stereo not given)	1%
CSc1nc2nc(C)cc(-c3ccccc3)n2n1	i
CC(NS(=O)(=O)c1ccc(CCC(=O)N2CCCCC2)cc1)c1ccccc1 (stereo not given)	i
Cc1c(CCC(=O)O)c(=O)oc2c(C)c(OCc3c(F)cccc3Cl)ccc12	i
O=C(CN(c1ccc(Cl)cc1Cl)S(=O)(=O)c1ccccc1)NCc1ccc(Cl)cc1	i
O=C(O)CN1C(=O)c2cccc(Oc3ccc(Cl)cc3)c2C1=O	i
COC(=O)Cc1c(C)c2ccc(OCC(=O)N(C)c3ccccc3)c(C)c2oc1=O	i
OC1C=CSc2nc3ccccc3n21 (stereo not given)	?
Cc1ccc(C(=O)Nc2cccc3cccnc23)cc1Cl	i

Retrieved by compound from the list above, 2 records:
SMILES	Mtb H37Rv
Cc1ccc([N+](=O)[O-])cc1S(=O)(=O)Nc1ccccc1C(=O)Nc1cccc(Cl)c1	i
O=C(O)CN1C(=O)c2cccc(Oc3ccc(Cl)cc3)c2C1=O	i

Following part:
SMILES	Mtb H37Rv
C=CCn1c(COc2c(C)cccc2C)nnc1SCC(=O)Nc1cccc(SC)c1	6%
Cc1ccc(NC(=O)c2csc(-c3ccccc3)c2-c2ccccc2)cc1	i
COc1ccc(F)cc1S(=O)(=O)N1CCc2ccccc2C1	i
COc1ccc(CC(=O)Nc2sc3c(c2C(=O)Nc2c(C)cccc2C)CCCCC3)cc1	i
COC(=O)c1c(NC(=O)CN2CCOCC2)sc(C)c1-c1ccccc1	4%
CCOc1cc(S(=O)(=O)N2CCN(c3ccccc3)CC2)ccc1Br	i
CCCCS(=O)CC(COC(C)C)OC(C)=O (stereo not given)	2%
CCOC(=O)Cn1nc(-c2nonc2N)nc1-c1nonc1N	0%
COc1cccc(C(=O)NC(=S)Nc2cc(C(=O)O)ccc2OC)c1	i
Cc1nn(Cc2ccc(F)cc2)c(C)c1NC(=O)c1cc2nc(C3CC3)cc(C(F)(F)F)n2n1	i
CCOc1ccc(OCC)c(S(=O)(=O)N2CCCN(S(=O)(=O)c3cc(OCC)ccc3OCC)CC2)c1	i
Cc1cccc(NC(=O)CSc2nnc3c4ccccc4nc(-c4ccccc4)n23)c1	i
Cc1[nH]c2ccccc2c1C1(O)C(=O)N(Cc2ccccc2)c2ccccc21 (stereo not given)	i
Clc1cccc(Cl)c1OCCOCCNCc1ccccc1	1%
Cc1cc(CNC(=O)Nc2ccc3c(c2)OCO3)nn1C	i
CCOC(=O)c1sc(NS(=O)(=O)c2cc(Cl)ccc2Cl)nc1C	i
Cn1cnnc1SCC(=O)N1c2ccccc2Sc2ccc(C(F)(F)F)cc21	i
O=C(CSc1nnc(-c2ccncc2)n1-c1ccc(F)cc1)c1ccccc1	i
Cn1c(SCC(=O)Nc2nccs2)nc2ccccc21	i
COc1ccc(C(=O)NCCC2=CCCCC2)cc1[N+](=O)[O-]	i
Cc1ccc(NC(=S)NC2CCCC2)cc1C	29%
CC1CCN(CCOCCOc2ccc(Cl)cc2Br)CC1	i
CCN(CC)C(=O)c1sc(NC(=S)N2c3ccccc3CC2C)c(C(=O)OC)c1C (stereo not given)	3%
O=C(NC(=S)Nc1ccc(N2CCCCC2)cc1)c1ccc(-c2ccccc2)cc1	8%
COc1cc(NC(=S)Nc2ccc([N+](=O)[O-])cc2OC)c(OC)cc1Cl	i
CCOc1cccc(CNC2CN3CCC2CC3)c1 (stereo not given)	i
CCc1ccc(OCCCC(=O)Nc2ccc(OC)cc2OC)cc1	1%
C=CCSc1nnc(NC(=O)CSc2nc3ccccc3s2)s1	i
CS(=O)(=O)Nc1ccccc1C(=O)Nc1ccccc1-c1ccccc1	i
CCC(CC)C(=O)N1CCN(c2cccc(C)c2C)CC1	5%

Entries above that have an NH in an aromatic ring:
SMILES	Mtb H37Rv
O=C(Nc1nc2ccccc2[nH]1)c1ccc(Br)o1	?
N#Cc1ccccc1CSc1nc(N)cc(=O)[nH]1	i
COc1cc(OC)c(C2C3=C(CC(C)(C)CC3=O)Nc3[nH]n(-c4ccccc4)c(=O)c32)cc1OC (stereo not given)	4%
COc1ccc(-n2c(-c3cccc(C)c3)n[nH]c2=S)cc1	i
O=C1c2ccccc2C(=O)N1c1n[nH]c(-c2ccc(Cl)cc2)n1	i
Cc1[nH]c2ccccc2c1C1(O)C(=O)N(Cc2ccccc2)c2ccccc21 (stereo not given)	i

(continued)
SMILES	Mtb H37Rv
CCc1ccc(NC(=O)COc2ccc(S(=O)(=O)NC(C)C)cc2)cc1	i
CS(=O)(=O)N1N=C(c2ccccc2)CC1c1ccc2nccnc2c1 (stereo not given)	0%
COc1ccc(NC(=O)CSc2nnnn2-c2ccccc2Cl)c(OC)c1	i
CCC(C)C(=O)Nc1ccc(Br)cc1C(=O)O (stereo not given)	12%
CC(=O)c1c(C)oc2ccc(N(C(=O)c3cccc([N+](=O)[O-])c3)S(=O)(=O)c3cccc4cccnc34)cc12	i
COc1cccc(NS(=O)(=O)c2cccc(Cl)c2)c1	i
C=CCN1C(=O)NC(=O)C(CCc2ccccn2)(CCc2ccccn2)C1=O	1%
Cc1cc(=O)oc2cc(OC(C)C(=O)NC(C)(C)C)ccc12 (stereo not given)	i

Only part of the results is shown; the hit share may differ from the screen's.
